CIT2 TOR yeast: modulators of TOR pathway CIT2-GFP in S. cerevisiae | GFP response vs DMSO, % at 10 µM | S. cerevisiae CIT2-GFP strain, flow cytometry, 3 h; 100 means same as DMSO wells | 320,000 compounds, 0.065% hits;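 active = GFP response relative to DMSO above a set limit, near the screen mean plus 3 SD, cut at about 150% in these data; inconclusive = Fewer than 70 cells measured for a yeast strain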;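 also: ratio of well median GFP fluorescence to mean of DMSO wells on the plate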
VLA-4 inh: inhibition in a human VLA-4 binding assay. P13612. VLA-4 expressing cells, ligand binding flow cytometry. inhibition, % (about 7 µM as worked out from the volumes in the protocol). 330,000 compounds, 0.2% hits. AID 2557; in the data active = inhibition above about 50%
Fam108B inh: counter-screen for RBBP9 inhibitors: inhibitors of mouse Fam108B; recombinant Fam108B, FP-Rh probe fluorescence polarization; inhibition, % at 9.51 µM; 300,000 compounds, 0.33% hits;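 active = inhibition above the screen mean inhibition plus 3 SD, computed separately per campaign, cut at about 18% in these data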;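 also: inhibitors lower polarization as less probe binds the enzyme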
MEX-5 binding: C. elegans MEX-5 TCR-2 RNA binding activity. MEX-5/FITC-TCR2 RNA binding, fluorescence polarization; active compounds read low. activity score (negative = inhibition of binding), % at 10 µM. 300,000 compounds, 0.38% hits;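 active = inhibition past about -25% in most replicates, and total fluorescence under double the plate's negative control median, limit read from the data; inconclusive = replicates evenly split on the limit, or fluorescence at least double controls; inactive = too little inhibition in most replicates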;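 also: 0% = DMSO and -100% = 5 µM competing unlabeled TCR2 RNA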
Target sequence (Q9XUB2 whole entry, looked up): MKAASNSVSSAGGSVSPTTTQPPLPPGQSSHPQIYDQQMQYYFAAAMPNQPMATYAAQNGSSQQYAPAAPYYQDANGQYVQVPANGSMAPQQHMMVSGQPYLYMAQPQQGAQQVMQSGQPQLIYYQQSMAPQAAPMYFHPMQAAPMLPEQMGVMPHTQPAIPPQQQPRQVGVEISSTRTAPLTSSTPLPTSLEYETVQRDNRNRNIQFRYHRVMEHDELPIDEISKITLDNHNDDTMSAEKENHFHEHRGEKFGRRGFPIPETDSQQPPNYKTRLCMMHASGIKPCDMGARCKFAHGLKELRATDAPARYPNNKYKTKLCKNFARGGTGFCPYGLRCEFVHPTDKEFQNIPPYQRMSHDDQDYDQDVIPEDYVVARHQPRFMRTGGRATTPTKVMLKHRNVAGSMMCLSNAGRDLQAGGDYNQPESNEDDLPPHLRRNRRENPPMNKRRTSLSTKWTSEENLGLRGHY
GLD-1 RNA inh: GLD-1-TGE RNA interaction inhibition (C. elegans); inhibition, % at 5.96 µM; AID 2280; 320,000 compounds, 0.44% hits; Q17339; purified GLD-1 + fluorescein TGE RNA, fluorescence polarization;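 active = percent inhibition above a per-plate cutoff, the plate mean of test compounds plus 3 SD, cut at about 30% in these data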;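 also: 0% = DMSO wells with GLD-1 and probe and 100% = wells lacking GLD-1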
Target sequence (Q17339 whole entry, looked up): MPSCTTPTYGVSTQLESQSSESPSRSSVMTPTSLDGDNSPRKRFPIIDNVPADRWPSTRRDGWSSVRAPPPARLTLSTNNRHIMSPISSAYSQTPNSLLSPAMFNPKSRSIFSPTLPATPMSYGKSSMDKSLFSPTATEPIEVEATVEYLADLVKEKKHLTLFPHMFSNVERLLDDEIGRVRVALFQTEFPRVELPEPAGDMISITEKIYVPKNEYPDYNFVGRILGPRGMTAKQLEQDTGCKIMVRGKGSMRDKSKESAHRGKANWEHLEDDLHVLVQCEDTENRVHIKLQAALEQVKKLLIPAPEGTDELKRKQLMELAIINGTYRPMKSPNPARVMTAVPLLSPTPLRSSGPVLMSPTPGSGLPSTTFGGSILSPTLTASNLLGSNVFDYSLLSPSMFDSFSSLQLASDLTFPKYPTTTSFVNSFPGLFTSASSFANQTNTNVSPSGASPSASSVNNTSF
GRK2 inh: blocks RNA aptamer binding to human GRK2 | P25098 | bead flow cytometry, FAM-aptamer displacement from GRK2 | inhibition of aptamer binding, % at 10 µM | 330,000 compounds, 0.59% hits | AID 488847;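 active = inhibition of aptamer binding above 40%, roughly 3 SD of noise, on plates passing a quality check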;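 also: median bead fluorescence of bound FAM aptamer so fluorescent compounds give negative values; no value below 0 was filed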
AGP1 TOR yeast: alters AGP1-GFP fluorescence in TOR pathway yeast screen; AID 2066; S. cerevisiae AGP1-GFP multiplex flow cytometry, 3 h; GFP as percent of DMSO wells; 320,000 compounds, 0.02% hits; GFP response vs DMSO, % at 10 µM;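 active = GFP response relative to DMSO above a set limit, near screen average plus 3 SD, cut at about 150% in these data; inconclusive = fewer than 70 cells counted for the yeast strain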;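 also: median GFP channel fluorescence of the gated AGP1 strain per well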
* marks the source's active call; other numbers are inactive results; ? = inconclusive; nt = not tested or not shown. The list is partial; count on the stated rates, not on these rows.

The first 13 records as a preview:
Values in the order: CIT2 TOR yeast, VLA-4 inh, Fam108B inh, MEX-5 binding, GLD-1 RNA inh, GRK2 inh, AGP1 TOR yeast
- CCCCCCOc1ccc(NC(=O)CC2C(=O)N(CC)C(=S)N2Cc2ccco2)cc1 (stereo unspecified)
 : 93, -3, -2, 1.6, 7, 0, 91
- CCCCN(C)CCNC(=O)c1nn(-c2ccc(OC)cc2)c(=O)c2c1c1ccccc1n2C
 : 97, 2, 0, -0.7, 7, 0, 100
- CC(C)n1c(/C=C/[C@@H](O)C[C@@H](O)CC(=O)O)c(-c2ccc(F)cc2)c2ccccc21
 : 133, -2, 7, 1.4, 3, 2, 97
- O=C(CSc1ccc(Cl)cc1)c1ccco1
 : 98, 12, 11, -2.7, 1, 58*, 95
- COc1nc(NCCc2ccc(OC)c(OC)c2)nc(OC)n1
 : 97, 2, -1, -2.1, 3, 2, 99
- CCOc1ccc(NC(=O)CSc2nnc(Cn3cnc([N+](=O)[O-])n3)n2CC)cc1
 : 93, -1, -4, -1.1, 3, 1, 96
- COc1cc(C(=O)NCc2cccc3ccccc23)ccc1OCc1ccccc1
 : 101, 2, -16, 2.5, -3, 0, 99
- Cn1c(-c2ccc3c(c2)OCO3)cnc1NC(=O)CCC(=O)NCCc1ccccc1
 : 106, 3, -1, 0.6, 0, 3, 95
- Cc1ccc([N+](=O)[O-])cc1-c1ccc2cccc(C)c2n1
 : 102, 0, -4, 0.4, 5, 0, 97
- CCc1ccccc1N/N=C(/C)c1c(O)cc(C)oc1=O
 : 114, 5, 0, 0.1, 9, 0, 101
- Cc1ccc(NC2=C(Cl)C(=O)OC2OC(C)C)c(C)c1 (stereo unspecified)
 : 107, 1, -2, nt, 11, 0, 108
- COc1ccc2cc3cc(C(=O)Nc4ccc5c(c4)OCO5)oc3nc2c1
 : 90, 2, 1, 0.6, 1, 1, 96
- O=C(Nc1ccc(F)cc1F)c1csc(-c2cccs2)n1
 : 109, 3, 2, -1.0, 9, 0, 106

This part in full, from the start:
Values in the order: CIT2 TOR yeast, VLA-4 inh, Fam108B inh, MEX-5 binding, GLD-1 RNA inh, GRK2 inh, AGP1 TOR yeast
- CCCCCCOc1ccc(NC(=O)CC2C(=O)N(CC)C(=S)N2Cc2ccco2)cc1 (stereo unspecified)
 : 93, -3, -2, 1.6, 7, 0, 91
- CCCCN(C)CCNC(=O)c1nn(-c2ccc(OC)cc2)c(=O)c2c1c1ccccc1n2C
 : 97, 2, 0, -0.7, 7, 0, 100
- CC(C)n1c(/C=C/[C@@H](O)C[C@@H](O)CC(=O)O)c(-c2ccc(F)cc2)c2ccccc21
 : 133, -2, 7, 1.4, 3, 2, 97
- O=C(CSc1ccc(Cl)cc1)c1ccco1
 : 98, 12, 11, -2.7, 1, 58*, 95
- COc1nc(NCCc2ccc(OC)c(OC)c2)nc(OC)n1
 : 97, 2, -1, -2.1, 3, 2, 99
- CCOc1ccc(NC(=O)CSc2nnc(Cn3cnc([N+](=O)[O-])n3)n2CC)cc1
 : 93, -1, -4, -1.1, 3, 1, 96
- COc1cc(C(=O)NCc2cccc3ccccc23)ccc1OCc1ccccc1
 : 101, 2, -16, 2.5, -3, 0, 99
- Cn1c(-c2ccc3c(c2)OCO3)cnc1NC(=O)CCC(=O)NCCc1ccccc1
 : 106, 3, -1, 0.6, 0, 3, 95
- Cc1ccc([N+](=O)[O-])cc1-c1ccc2cccc(C)c2n1
 : 102, 0, -4, 0.4, 5, 0, 97
- CCc1ccccc1N/N=C(/C)c1c(O)cc(C)oc1=O
 : 114, 5, 0, 0.1, 9, 0, 101
- Cc1ccc(NC2=C(Cl)C(=O)OC2OC(C)C)c(C)c1 (stereo unspecified)
 : 107, 1, -2, nt, 11, 0, 108
- COc1ccc2cc3cc(C(=O)Nc4ccc5c(c4)OCO5)oc3nc2c1
 : 90, 2, 1, 0.6, 1, 1, 96
- O=C(Nc1ccc(F)cc1F)c1csc(-c2cccs2)n1
 : 109, 3, 2, -1.0, 9, 0, 106
- C/C(=N\NC(=O)c1ccccc1C)c1ccc(NC(=O)c2cccs2)cc1
 : 84, 13, 3, -0.6, -1, 0, 86
- CN1CCN(c2ccc(S(=O)(=O)N3CCCCC3)cc2NC(=O)c2cccc([N+](=O)[O-])c2)CC1
 : 97, 16, -2, 0.8, 2, 0, 98
- O=C(Nc1c(C(=O)NCc2ccco2)cnn1-c1ccccc1)c1ccc(F)cc1
 : 86, 1, -6, -0.1, -1, 0, 79
- O=[N+]([O-])c1cc(C(F)(F)F)ccc1NCCOc1ccccc1
 : 98, 2, 4, 0.1, 9, 0, 101
- N#CCCN(CCC#N)C(=O)c1ccc2c(c1)OCO2
 : 114, 0, 2, -0.5, 2, 0, 113
- CCSc1nnc(NC(=O)C(C(F)(F)F)C(F)(F)F)s1
 : 95, 16, -1, 2.4, -3, 4, 102
- C[C@@]12C(=O)OC(=O)[C@]1(C)C1CCC2O1
 : 67, 24, 0, nt, 0, 0, 71

New compounds follow
Values in the order: CIT2 TOR yeast, VLA-4 inh, Fam108B inh, MEX-5 binding, GLD-1 RNA inh, GRK2 inh, AGP1 TOR yeast
- CCOc1cc(/C=N\NC(=O)CN2CCOCC2)ccc1OCc1ccc(F)cc1
 : 99, 12, 1, -2.1, 1, 4, 95
- CCOC(=O)N1CCC(NCCNC(=O)c2ccco2)CC1
 : 94, -5, -2, -1.9, -1, 1, 93
- C=CCn1c(COc2ccccc2)nnc1SCC(=O)Nc1ccc(S(N)(=O)=O)cc1
 : 96, -3, 2, 0.6, 2, 0, 94
- COc1ccc2cc3cc(C(=O)NCCCN4CCc5ccccc5C4)sc3nc2c1
 : 84, 10, -2, -5.9, -2, 0, 98
- CC1=C(C(=O)Nc2cccnc2)C(c2cccnc2)n2ncnc2N1 (stereo unspecified)
 : 107, -12, 1, -2.1, -2, 0, 107
- CC(C)(C)c1cc(CN(CCO)CCO)cc(C(C)(C)C)c1O
 : 100, -1, -4, 1.8, 10, 0, 101
- CN(Cc1nc2ccc(F)cc2[nH]1)Cc1c(C(=O)N(C)C)nc2ccc(Cl)cn12
 : 101, 3, 2, -1.2, 8, 6, 105
- CC(C)(C)NC[C@@H](O)COc1cccc2c1CCCC2=O
 : 83, 13, -1, nt, -1, 3, 88
- Cn1c(OCc2ccco2)nc2c1c(=O)n(Cc1ccc(Cl)c(Cl)c1)c(=O)n2C
 : 89, 1, 4, -0.7, 6, 2, 107
- CC1=C(C(N)=O)C(c2cccc(OCc3ccccc3)c2)n2nnnc2N1 (stereo unspecified)
 : 95, -14, 0, 0.0, 0, 0, 97
- COc1ccc(-c2onc3ccc(C(C)=O)cc23)cc1
 : 105, -4, -1, -70*, 169*, 4, 92
- CC(C)C1=CC2=CCC3C(C)(C(=O)O)CCCC3(C)C2CC1 (stereo unspecified) (tested in a mixture with another compound)
 : 101, 0, 8, -0.4, 11, 0, 96
- Cn1c(C(=O)NCC2CCCO2)cc2c(=O)n3ccccc3nc21 (stereo unspecified)
 : 101, 23, 1, -2.8, -1, 0, 100
- CC(C)N1C(=S)N(Cc2ccco2)C(=O)C1CC(=O)Nc1ccccc1 (stereo unspecified)
 : 101, 0, 2, -1.2, 0, 0, 109
- CCCc1nc(C)c2c(=O)[nH]c(-c3cc(S(=O)(=O)N4CCN(CC)CC4)ccc3OCC)nn12
 : 86, 46, 1, 1.1, 0, 3, 90
- C[C@]12CC[C@@H]3c4ccc(O)cc4CC[C@H]3[C@@H]1CCC2=O
 : ?, 19, -3, -0.5, -1, 0, ?
- Cc1ccc2nc3c(nc2c1)-c1ccccc1C3=O
 : 107, 2, -4, -0.5, -4, 1, 100
- CN1C(=S)N(c2ccccc2)C(=O)/C1=C/c1ccco1
 : 99, 0, -2, 1.2, 2, 0, 93
- O=C(Nc1cnn(Cc2ccc(F)cc2)c1)c1cnn2c(C(F)F)cc(-c3ccccc3)nc12
 : 97, 18, -2, 0.2, 0, 1, 99
- COc1ccccc1C(=O)Nc1ccc2oc(-c3ccc(F)cc3)nc2c1
 : 93, 10, -10, 1.4, 4, 0, 26

Going on with the list.
Values in the order: CIT2 TOR yeast, VLA-4 inh, Fam108B inh, MEX-5 binding, GLD-1 RNA inh, GRK2 inh, AGP1 TOR yeast
- N#Cc1ccc(/C=N/NC(=O)c2cc(-c3cccs3)nc3ccccc23)cc1
 : 94, -5, -25, 0.8, -4, 4, 112
- COC(=O)c1cc2ccsc2n1Cc1ccccc1F
 : 84, -3, -1, 0.1, 2, 0, 88
- NC(N)=Nc1nc(CSCC/C(N)=N/S(N)(=O)=O)cs1
 : 109, -7, 0, 1.6, 1, 0, 103
- Cc1nn(-c2ccc(Cl)cc2)c2[nH]c(=O)c(CNCc3ccc4c(c3)OCO4)cc12
 : 101, -22, 0, 0.2, -2, 0, 100
- CCCSc1ccc2nc(NC(=O)OC)[nH]c2c1
 : 89, 22, 3, 0.3, -1, 0, 90
- N#C/C(=C\c1ccc(-c2ccccc2Cl)o1)C(=O)Nc1nc2ccccc2s1
 : 93, -21, 7, 4.9, -4, 3, 92
- C[N+]1(C)CCCC(OC(=O)C(O)(c2ccccc2)c2ccccc2)C1 (stereo unspecified)
 : 86, 3, 2, 2.0, 6, 1, 90
- S=c1[nH]nc(-c2ccccc2Cl)n1Cc1ccccc1
 : 90, 9, -1, 0.3, 5, 2, 103
- CNC(=O)CSc1nnc(-c2ccco2)n1-c1ccc(C)cc1
 : 94, 18, -1, nt, 1, 1, 92
- Nc1ncnc(Nc2ccc(F)cc2)n1
 : 94, 13, -2, 4.3, -4, 0, 100
- CCCC(=O)Nc1nc2c(OC)ccc(OC)c2s1
 : 104, -12, 5, 2.0, -5, 2, 107
- c1cc(-c2nnc(-c3ccncc3)o2)ccn1
 : 76, 0, -1, -4.4, -1, 1, 94
- Cc1c(/C=N/NC(=O)CNc2ccccc2)c2ccccn2c1C(=O)c1ccncc1
 : 94, -7, 3, -0.1, -1, 4, 97
- CC(=O)OCC(=O)[C@@]1(O)CC[C@H]2[C@@H]3CCC4=CC(=O)C=C[C@]4(C)[C@H]3[C@@H](O)C[C@@]21C
 : 82, -3, -5, 2.0, 2, 0, 91
- COC(=O)CCN(C(=O)C12CC3CC(CC(C3)C1)C2)c1ccccn1
 : 87, 16, -2, 3.1, 1, 0, 83
- COc1ccc(CNc2nc(-c3cccnc3)nn2C(=O)c2ccco2)cc1
 : ?, -2, -1, -1.2, 1, 0, ?
- COc1cc(C)c(S(=O)(=O)NCc2ccc3c(c2)OCO3)cc1C
 : 104, 12, -1, 2.8, -3, 0, 102
- CSCC[C@@H](C(=O)O)N1Cc2ccccc2C1=O
 : 101, -4, -7, 1.4, -3, 6, 101
- O=C(NCc1cccs1)C1CCN(S(=O)(=O)c2ccccc2F)CC1
 : 110, -1, -1, -0.9, 1, 0, 105
- Cc1cc(C)c(S(=O)(=O)Nc2cccnc2)c(C)c1
 : 95, 9, -4, 2.2, -4, 1, 97
- CC(=O)Nc1ccc(/C=N/Nc2ccc(C(=O)c3c(C)cc4ccccn34)cc2[N+](=O)[O-])cc1
 : 104, 11, 6, 3.4, 5, 0, 104

Screening data as filed in PubChem BioAssay.
